# Screening data: PubChem BioAssay, ICCB-Longwood Screening Facility, Harvard Medical School
# Sa growth 42C – S. aureus growth inhibition at 42 and 30 °C, primary screen, LtaS inhibitor project, RN4220, two temperatures. OD600, 20 h, 42 °C; active compounds read low. relative growth, % (no concentration beside the values). 170,000 tested, 0.53% active. AID 720641, 2013;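 active = growth at 42 °C up to 50% and 20 or more points under that at 30 °C, or under 10% at both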;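 also: 300 nL library stock went into each well; scaled to the means of positive and negative controls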
# HCMV NEC inh – inhibitors of HCMV UL50-UL53 interaction, biochemical, HTRF. HCMV UL50-UL53 nuclear egress complex (human cytomegalovirus). normalized percent inhibition. inhibition, % (concentration not given with the values). 190,000 tested, 0.15% active. AID 1918969, 2023;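 active = both replicates at 50% or more, plus weaker picks with an unusually low signal ratio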;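 also: stock transfer was 100 nL into about 20 µL; 0% = negative control wells and 100% = wells with untagged competitor protein; inactives centre near -12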
# GIV-Gai inh – inhibitors of GIV peptide binding to Galpha-i3, primary screen, biochemical, fluorescence polarization, FITC-GIV GBA peptide, rat Galphai3 | percent of control (FP), % (concentration not given with the values) | 210,000 tested, 0.42% active | 90 min; active compounds read low; scaled: aluminum fluoride 0%, vehicle 100% | AID 1224905, 2016;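 active = replicate mean at 85% of control or lower, very high polarization wells dropped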;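 also: wells of about 15 µL received 100 nL stock; the first replicate is given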
# Target sequence (P08753 whole entry, looked up): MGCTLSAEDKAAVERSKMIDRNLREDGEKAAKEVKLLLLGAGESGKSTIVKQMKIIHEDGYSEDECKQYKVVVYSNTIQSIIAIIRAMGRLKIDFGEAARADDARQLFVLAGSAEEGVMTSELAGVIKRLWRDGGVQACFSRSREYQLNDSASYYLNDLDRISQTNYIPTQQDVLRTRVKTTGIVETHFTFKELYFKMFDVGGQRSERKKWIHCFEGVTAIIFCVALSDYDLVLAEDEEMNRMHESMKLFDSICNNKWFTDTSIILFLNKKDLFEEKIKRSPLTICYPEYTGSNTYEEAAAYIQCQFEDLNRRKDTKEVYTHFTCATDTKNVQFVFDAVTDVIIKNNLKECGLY
# Sa growth 42C second temp – also measured in Sa growth 42C; calls as there; relative growth, %; measured here: growth at 30 °C;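 optical density after 20 h as mean of two plates; 100% = untreated growth and lower means inhibition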
# Active calls of the source: *; x = not tested or not shown; & = joins results of further samples.
smiles	Sa growth 42C	Sa growth 42C second temp	HCMV NEC inh	GIV-Gai inh
CC(C)CCNC(=O)c1ccc(N(C)S(C)(=O)=O)cc1	101	97	-1	103
O=C(CC=Nc1ccccc1)c1ccccc1	104	86	x	101
Cc1ccc(S(=O)(=O)N(CC(=O)NC2CCCCC2)Cc2ccco2)cc1C	99	95	-22	x
NC(=O)c1sc2nc3c(cc2c1N)CCCCC3	92	76	-66	99
Cc1ccc(CNC(=O)CSc2cc(C)[nH]c(=O)n2)cc1	116	87	x	116
NC(=O)c1cc(NS(=O)(=O)/C=C/c2ccccc2)cc(C(N)=O)c1	80	92	-6	x
CC1(C)CCc2cc(S(=O)(=O)N(Cc3ccccn3)Cc3ccccn3)ccc2O1	101	91	-41	100
O=C1NC(=O)/C(=C\c2cn(Cc3ccccc3)nc2-c2cccnc2)S1	99	91	-68	x
Cc1ccc(-c2c(C(F)(F)F)nn3c(NC(C)C)cc(C)nc23)cc1	x	x	0	97
O=C(O)c1c(CNC2CCCc3ccccc32)c2ccccc2n1Cc1ccc(F)cc1Cl (stereo not drawn)	29	23	x	110
CC(C)Cc1cc(-c2nn3c(COc4ccc(Cl)cc4)nnc3s2)n[nH]1	x	x	-16	104
COc1cccc(-n2c(SCC(=O)NC3CCCC3)nc3c(c2=O)SCC3)c1	95	85	x	104
O=S1(=O)C[C@H](N2CCN(c3ncccn3)CC2)[C@@H](S(=O)(=O)c2cccs2)C1	x	x	7	100
CCCCSc1cc2c(cc1NC(C)=O)n(C)c(=O)n2C	x	x	-40	102
Cc1[nH]n(-c2cccc(Cl)c2)c(=O)c1C=NC1CCS(=O)(=O)C1 (stereo not drawn)	99	93	-11	100
CC(C)CN(CC(C)C)C(=O)NCc1noc2ccccc12	98	92	x	98
O=C(C1CN(CC(=O)N2CCNC2=O)c2ccccc2O1)N1CCOCC1 (stereo not drawn)	82	83	-27	x
COc1ccc(C2C(C(=O)N3CCCC3)c3cc(OC)c(OC)cc3C(=O)N2C)cc1 (stereo not drawn)	93	96	x	109
CCC1CCCCN1C(=O)Cn1cc(S(=O)(=O)N(C)C)ccc1=O (stereo not drawn)	97	89	-12	x
COc1ccc(Br)cc1CNC(=O)COc1nc(C)nc2onc(-c3cccc(F)c3)c12	x	x	-34	94
O=C(NC1CCCC1)c1ccc2c(c1)N(Cc1ccc(C(F)(F)F)cc1)C(=O)c1ccccc1S2	103	87	-13	100
Cc1cc(N2CCC(C)CC2)n2nc(-c3ccc(Cl)cc3)nc2n1	x	x	-21	105
CC(C)(C)NC(=O)CSc1nnc(C(F)(F)F)n1N	73	90	-16	x
CCCn1cnc2sc(C(N)=O)c(C)c2c1=O	106	94	-21	100
CCc1c(C)c(C#N)c2nc3ccccc3n2c1-n1nc(C)cc1C	102	84	-41	86
Cc1noc(Cn2c(=O)c3ccccc3n(CC(=O)Nc3ccccc3C)c2=O)n1	x	x	-7	107
Cc1ccc(NC(=O)NCCc2c(C)nn(C)c2C)c(Cl)c1	80	88	x	102
COc1ccc(C2=NN3C(C2)c2cc(Cl)ccc2OC3c2ccc([N+](=O)[O-])cc2)cc1OC (stereo not drawn)	x	x	-25	117
CCCCNC(=O)Cc1c(C)nc2nc(CC)nn2c1C	x	x	7	103
OC1CCCN(CC(O)c2ccccc2)C1 (stereo not drawn)	96	91	0	x

# Shown with each value named: entries from further up.
> Cc1ccc(NC(=O)NCCc2c(C)nn(C)c2C)c(Cl)c1
  Sa growth 42C: 80 | Sa growth 42C second temp: 88 | HCMV NEC inh: x | GIV-Gai inh: 102
> COc1ccc(C2=NN3C(C2)c2cc(Cl)ccc2OC3c2ccc([N+](=O)[O-])cc2)cc1OC (stereo not drawn)
  Sa growth 42C: x | Sa growth 42C second temp: x | HCMV NEC inh: -25 | GIV-Gai inh: 117

# New compounds follow
smiles	Sa growth 42C	Sa growth 42C second temp	HCMV NEC inh	GIV-Gai inh
CC(=O)Nc1ccc(S(=O)(=O)N2CCC3(CC2)OCCO3)cc1	78	80	-32	x
Cc1nn(-c2ccc(F)cc2)c(C)c1S(=O)(=O)NCCN(C)C	x	x	-23	110
O=C(NCCN1CCN(c2nccc(C(F)(F)F)n2)CC1)c1cccs1	108	83	-23	103
CCc1ccc(NC(=O)c2sc3nc(C)cc(C)c3c2NC(=O)c2ccccc2OC)cc1	107	88	-12	105
CNC(=O)c1ccc(N2C(=O)C3C4C=CC(C4)C3C2=O)cc1 (stereo not drawn)	93	88	-10	98
CNC(=O)c1ccc2c(c1)N=C(C)c1cc(C)ccc1S2	121	88	-5	107
Cc1cc(C(=O)Nc2ccccc2C(=O)O)c(C)o1	112	76	-37	98
Cc1noc(C)c1COC(=O)C1c2ccccc2Oc2ccccc21	116	93	-7	x
Cn1nc(-c2ccccc2)cc1NC(=O)c1cc(Cl)sc1Cl	122	86	32	107
CC(C)n1cnc2nc(CSc3ccccc3NC(=O)c3ccccc3)cc(=O)n21	x	x	1	102
Clc1ccc(-c2cn3cc(Cc4ccccc4)sc3n2)cc1	99	84	-60	102
Cc1ccc(NC(=O)CC2Sc3ccc(C(F)(F)F)cc3NC2=O)c(C)c1 (stereo not drawn)	115	84	x	104
Cc1noc(C)c1C(=O)N1CCCCC1c1ccccn1 (stereo not drawn)	93	87	-16	102
Cc1cc2nc(Nc3ccccc3)c3ccccc3n2n1	69	82	-39	x
Nc1nc(=Nc2ccccc2)ss1	40	40	-6	x
CCOc1cc(/C=N/NC(=O)c2nnn(-c3nonc3N)c2C)ccc1OC(=O)N1CCOCC1	92	82	-7	100
COc1ccc(NC(=O)CSc2nc(-c3ccccc3)cc(=O)[nH]2)cc1	134	70	x	103
CCc1noc(C)c1C(=O)OCC(=O)c1ccc(Br)s1	116	99	6	x
CCCCC(=C1C(=O)CCCC1=O)N1CCCC1	81	53	-5	x
CCN1CCN(Cc2c(O)ccc3oc(C)c(C(=O)Nc4ccc(OC)c(Cl)c4)c23)CC1	115	93	2	98
CN1Cc2cccc(C(=O)Nc3ccc(N4CCOCC4)cc3)c2C1=O	x	x	-12	106
Cc1ccc(Cn2c(C(=O)NCc3ccccc3Cl)cc3sccc32)cc1	94	91	-12	102
CC(C)c1nnc(NC(=O)C2CCN(C(=O)c3ccco3)CC2)s1	86	60	5	108
O=C(O)CCNC(=O)c1ccc(N=Nc2ccc(O)c(C(=O)O)c2)cc1	83	92	-183&-80&-152	x
O=C(NCCCc1ccccc1)c1cc(-c2ccccn2)nc2ccccc12	x	x	-11	107
COc1ccc(N2CCN(c3nc(-c4ccccc4F)nc4ccccc34)CC2)cc1	114	87	x	106
O=C(O)c1cccc(S(=O)(=O)N2CCCCC2)c1	116	85	-9	101
Cc1ccc(NC(=O)/C(C#N)=C/c2cc(C)n(-c3ccc(Br)cc3)c2C)cc1C	99	86	-35	109
COc1cc(/C=C2\SC(NC(C)=O)=NC2=O)ccc1OCc1ccccc1F	x	x	-23	110
O=C(NC1CCCCC1)C1C2C=CC3(CN(Cc4cccs4)C(=O)C13)O2 (stereo not drawn)	109	83	x	94
c1ccc(-c2cnc(-c3ccccc3)cn2)cc1	117	101	0	110
O=C(O)CC(CC(=O)Nc1cccc2c1CCCC2)c1ccccc1 (stereo not drawn)	106	92	-4	101
CN(Cc1ccccc1)C(=O)Nc1cn(C)c(=O)c2ccccc12	92	83	-15	102
COc1ccc(CCNC(=O)C(=O)NCC(c2ccco2)S(=O)(=O)c2ccccc2)cc1 (stereo not drawn)	120	77	x	100
COCCN1C=C(C(=O)OC)C(c2ccccc2Cl)C(C(=O)OC)=C1	94	94	-13	99
CCc1cccc(CC)c1N(COC)C(=O)Cn1c(C)nc2ccccc21	113	90	-21	102
CCOc1ccc(OCC)c(NC(=O)C(NS(=O)(=O)c2ccc(Br)s2)c2ccccc2)c1 (stereo not drawn)	89	92	-19	101
CC(C)(C)c1ccc(C(=O)N2CCCCC2CCN2CCCCC2)cc1 (stereo not drawn)	96	91	-25	102
CCOc1ccc(-c2nc(SCC(=O)NCCOC)c(-c3ccc(OC)c(OC)c3)[nH]2)cc1	96	82	-8	103
Cc1c(-c2c(Cl)cccc2Cl)noc1C(=O)CN=S(C)(=O)c1ccc(C(F)(F)F)cn1 (stereo not drawn)	88	87	-12	104

# Continuation.
# Results follow in this order: Sa growth 42C	Sa growth 42C second temp	HCMV NEC inh	GIV-Gai inh
- O=C(O)CC1ON(c2ccccc2)C(=S)N1c1ccccc1 (stereo not drawn)
→ 99	94	5	110
- O=S(=O)(NCC1CCN(S(=O)(=O)c2ccccc2)CC1)c1cccc(C(F)(F)F)c1
→ 105	100	-10	105
- Cc1ccc2c(n1)sc1c(=O)n(-c3ccccc3)nnc12
→ 100	80	-39&-32	106&105
- CC(C)[C@@H]1CC[C@@H](C)C[C@@H]1P(=O)(c1ccccc1)c1ccccc1
→ x	x	-1&-10	102
- Cn1c(-c2ccccc2)c(/C=N/NC(=O)C2CC2)c2ccccc21
→ 80	95	-30	x
- COc1cc2c(cc1OC)C(C)N(C(=O)/C=C/c1ccccc1)CC2 (stereo not drawn)
→ 95	55	-142	102
- O=C(O)c1cc(N2CCN(c3ncccn3)CC2)nc2ccc(NS(=O)(=O)c3cc(F)ccc3F)cc12
→ x	x	-42	106
- COc1cccc(OCCSc2nc(C)c(Cc3ccccc3)c(=O)[nH]2)c1
→ 105	86	-17	101
- O=C(O)CCC1NC(=O)NC1=O (stereo not drawn)
→ 89	110	0	100
- CN(C)C(=O)C1Cc2ccccc2CN1S(=O)(=O)c1cccs1 (stereo not drawn)
→ 95	84	-1	106
- CC(C)OC(=O)C(C(=O)C(F)(F)F)c1cc(NS(=O)(=O)c2ccc3c4c(cccc24)C(=O)N3)ccc1O (stereo not drawn)
→ 107	88	-75	108
- Cc1c(NC(=O)c2ccccc2Cl)c(-n2cnnc2)nn1C
→ x	x	15	102
- Cc1ccc(-c2nc(CS(=O)(=O)CC(=O)N3CCCC3)c(C)o2)cc1
→ 95	91	3	96
- O=C(Cn1c(=O)n(-c2ccc(Cl)cc2)c(=O)c2oc3ccccc3c21)Nc1ccccc1
→ 99	93	x	108
- COC(=O)c1ccc(N=C/C(Br)=C/c2ccccc2)cc1
→ 99	80	0	x
- Cc1ccc(Cl)cc1NC(=O)Cc1nn(C)c(=O)c2ccccc12
→ 97	80	0	104
- NS(=O)(=O)c1ccc(CCNc2cc(C(=O)N3CCOCC3)c3ccccc3n2)cc1
→ 99	88	-16	x
- Cc1ccc(C)c(-c2ccc(=O)n(Cc3c(F)cccc3Cl)n2)c1
→ 75	47	4	98
- Fc1ccc(-c2cc(-c3ccccc3)nc3ncnn23)cc1
→ 108	78	-12	102
- Cc1cc(N2CCOCC2)ccc1/C=C1\NC(=O)N(Cc2ccccc2F)C1=O
→ 100	99	-9	108
- CCOc1cccc(N2C(=O)/C(=C\c3ccc(N(CC)CC)cc3)C(=O)NC2=S)c1
→ x	x	-17	125
- Nc1nn(-c2ccccc2)nc1NC=O
→ 95	86	-19	99
- CCCN1C(=O)c2oc3ccccc3c2OCC1(C)C(=O)NCc1ccccc1OC (stereo not drawn)
→ x	x	-14	113
- CC(C)(C)c1cc2c(=O)[nH]nc(N)c2c(=O)[nH]1
→ 103	90	-32	102
- CC(=O)N1c2ccc(S(=O)(=O)N3CCCCCC3)cc2CC1C(=O)NCc1cccc(F)c1 (stereo not drawn)
→ 99	92	x	107
- O=C(COc1ncnc2ccc(Br)cc12)NCCN1C(=O)CSC1=O
→ 108	94	-6	x
- Cc1ccc2nc(Nc3ccc(Br)cc3)nc(-c3ccccc3)c2c1
→ 105	91	-34	106
- CC(C)CN(CC(C)C)c1nnc(NC(=O)Cn2c(=O)oc3ccccc32)s1
→ 97	90	2	100
- O=C(NC1CCCCC1)[C@H]1CCCC[C@H]1C(=O)O
→ x	x	-20	98
- CCc1ccc(NC(=O)c2cc(S(=O)(=O)N3CCCC(C)C3)cn2C)cc1 (stereo not drawn)
→ 107	91	x	102

# Structural class, the entries above containing two or more sulfur atoms (6)
# Results follow in this order: Sa growth 42C	Sa growth 42C second temp	HCMV NEC inh	GIV-Gai inh
- COc1cccc(-n2c(SCC(=O)NC3CCCC3)nc3c(c2=O)SCC3)c1
→ 95	85	x	104
- O=S1(=O)C[C@H](N2CCN(c3ncccn3)CC2)[C@@H](S(=O)(=O)c2cccs2)C1
→ x	x	7	100
- Nc1nc(=Nc2ccccc2)ss1
→ 40	40	-6	x
- CCOc1ccc(OCC)c(NC(=O)C(NS(=O)(=O)c2ccc(Br)s2)c2ccccc2)c1 (stereo not drawn)
→ 89	92	-19	101
- O=S(=O)(NCC1CCN(S(=O)(=O)c2ccccc2)CC1)c1cccc(C(F)(F)F)c1
→ 105	100	-10	105
- CN(C)C(=O)C1Cc2ccccc2CN1S(=O)(=O)c1cccs1 (stereo not drawn)
→ 95	84	-1	106

# The listing continues.
# Results follow in this order: Sa growth 42C	Sa growth 42C second temp	HCMV NEC inh	GIV-Gai inh
- Cc1ccc(S(=O)(=O)N2CCN(c3cc(=O)n4nc(-c5ccccc5C)sc4n3)CC2)c(C)c1
→ x	x	14	104
- CCOC(=O)c1c(NC(=O)c2cc(=O)c3ccc(C)cc3o2)sc(C)c1C
→ 85	93	25	98
- O=S(c1nc2ccccc2[nH]1)C(F)(F)F (stereo not drawn)
→ 93	98	-13	x
- CCOc1ccc(-n2c(=O)c3c4c(sc3n(CC(=O)NCCCOC)c2=O)CCCCC4)cc1
→ 92	92	-14	109
